Compound activity: PubChem, National Center for Advancing Translational Sciences (NCATS)
AMA1 RON2 block: disrupts binding of P. falciparum AMA1 to RON2. 0.2% of 360,000 active. AlphaScreen AMA1-biotinylated RON2 peptide binding. Potency, µM (doses to about 58.2 µM), for the others: at the top dose activity change, negative = inhibition, most hits filed as inhibitors;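 also: 0% = vehicle wells and -100% = peptide control; nearly all actives have a fitted effect of over 45% in size; some results filed as inactive show a strong effect at the top dose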
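AMA1 (3D7) with his tag at 25 nM final met compounds first, then biotinylated RON2 peptide at 25 nM; detection used donor plus acceptor beads, 10 µg/mL apiece, read by AlphaScreen after 30 min at room temperature.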
Giardia FBPA inh: Giardia lamblia aldolase inhibition | A8B2U2 | purified Giardia FBPA | Potency, µM (titrated, usually from 59.6 µM), for the others: at the top dose activity, negative = inhibition, usual class: inhibitors | 0.71% of 290,000 active | AID 2451; also: nearly all actives have a fitted effect of over 55% in size
Target sequence (A8B2U2 whole entry, looked up): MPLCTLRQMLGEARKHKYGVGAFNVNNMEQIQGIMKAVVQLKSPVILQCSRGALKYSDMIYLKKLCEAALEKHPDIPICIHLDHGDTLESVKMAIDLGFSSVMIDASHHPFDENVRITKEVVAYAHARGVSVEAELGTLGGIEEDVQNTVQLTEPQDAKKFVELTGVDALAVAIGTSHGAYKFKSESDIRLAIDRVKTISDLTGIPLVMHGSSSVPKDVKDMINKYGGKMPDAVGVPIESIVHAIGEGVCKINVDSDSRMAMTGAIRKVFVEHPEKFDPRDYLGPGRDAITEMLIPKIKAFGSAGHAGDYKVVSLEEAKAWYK
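40 nM FBPA preincubated 10 min at RT with compound (up to 57.5 uM final), then substrate plus GAPDH/TPI/NAD/arsenate coupling and diaphorase/resazurin added. Fluorescence read after 20 min at RT, 525/598 nm.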
Sm TGR block: S. mansoni TGR enzyme inhibition; purified TGR, DTNB reduction, TNB absorbance 405 nm; Potency, µM (titrated, usually from 114 µM), without a hit: at the highest dose activity change, negative = inhibition, most hits filed as inhibitors; 3% of 360,000 active; AID 485364; also: nearly all actives have a fitted effect of over 60% in size
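Kinetic colorimetric format: TGR-catalysed, NADPH-driven DTNB reduction monitored via TNB absorbance. Enzyme dispensed at 20 nM; compound exposure 15 min at room temperature before reaction start.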
Numbers without * were called inactive; ? = inconclusive; . = not tested or not shown; & = joins results of further samples; [ ] = another dose, or the depositor's remark. Calls follow the shape of the dose curve; as a rule, active = well fitted curve in the direction sought with a large enough effect; inconclusive = small, poorly fitted or top-dose-only effect, or another doubt; inactive = no such curve, though single readings can be large; an effect the other way counts as inactive or inconclusive. Unless noted, % is scaled to controls: 0 for no effect and ±100 for the full control effect; potency is read from the fitted curve at half-maximal effect.

Results follow in this order: AMA1 RON2 block | Giardia FBPA inh | Sm TGR block
CC[C@H]1CN2CCc3cc(OC)c(OC)cc3[C@@H]2C[C@@H]1C[C@H]1NCCc2cc(OC)c(OC)cc21
 : -7% | -2%&-2% | 5%
Clc1ccc(N2CCN(Cc3c[nH]c4ncccc34)CC2)cc1
 : -1% | -1%&-26% | -11%
CCCC1=Nc2cc(C(=O)NC3CCC(C)CC3)ccc2Sc2ccccc21 (stereo not drawn)
 : . | . | 0%
Nc1ccc(-c2nc3ccc(N)cc3[nH]2)cc1
 : ? | -6% | 1%
CN(C/C=C/c1ccccc1)Cc1cccc2ccccc12
 : 5% | . | 2%
C[C@@H]1CC2C3CCC4=CC(=O)C=CC4(C)[C@@]3(F)[C@@H](O)CC2(C)[C@@]1(O)C(=O)CO (stereo partly drawn)
 : . | 7% | .
CCOc1ccc(C(=O)N(CC(=O)Nc2cccc(C)c2C)CC2CCCO2)cc1OC (stereo not drawn)
 : -16% | . | -3%
Cc1cccn2c(=O)c3cc(C(=O)NCCc4ccccc4)c(=N)n(CCCn4ccnc4)c3nc12
 : -1% | 7% | -23%
O=C(C1CCCCC1)N1CC(=O)N2CCc3ccccc3[C@@H]2C1
 : . | -3%[21.7 µM] | .
COc1ccccc1N1CCN(CCN(C(=O)c2ccc(F)cc2)c2ccccn2)CC1
 : -13% | . | -11%
CN1C(=O)Cc2cc(S(=O)(=O)N3CCN(c4ccc(Cl)cc4)CC3)ccc21
 : -4% | . | -2%&-1%
CCN(CC)S(=O)(=O)c1ccc(-c2nnc(SCC(=O)N3CCc4ccccc43)o2)cc1
 : -9% | 9% | -3%
CC12CCC(=O)C=C1CCC1C2C(=O)CC2(C)C1CCC2(O)C(=O)CO (stereo not drawn)
 : 0% | -11% | 0%
CC(C)C(=O)Nc1ccc([N+](=O)[O-])c(C(F)(F)F)c1
 : 10% | -1% | 7%
CC12CCC(=O)C=C1CCC1C2C(=O)CC2(C)C1CC[C@]2(O)C(=O)CO (stereo partly drawn)
 : -4% | -2% | -2%

Another view of some results above.
Compound	AMA1 RON2 block	Giardia FBPA inh	Sm TGR block
CCCC1=Nc2cc(C(=O)NC3CCC(C)CC3)ccc2Sc2ccccc21 (stereo not drawn)	.	.	0%
Nc1ccc(-c2nc3ccc(N)cc3[nH]2)cc1	?	-6%	1%
CN(C/C=C/c1ccccc1)Cc1cccc2ccccc12	5%	.	2%

Additional structures follow.
O=C(O)Cc1ccccc1
- AMA1 RON2 block: .
- Giardia FBPA inh: 2%
- Sm TGR block: .

C#CC1(O)CCC2C3CCC4=C(CCC(=O)C4)C3CCC21C (stereo not drawn)
- AMA1 RON2 block: 9%
- Giardia FBPA inh: .
- Sm TGR block: .

CC[C@@H]1OC(=O)[C@H](C)[C@H](O[C@@H]2C[C@](C)(OC)[C@H](O)[C@H](C)O2)[C@H](C)[C@H](O[C@@H]2O[C@@H](C)C[C@@H](N(C)C)[C@@H]2O)[C@](C)(O)C[C@H](C)C(=NOCOCCOC)[C@H](C)[C@H](O)[C@]1(C)O
- AMA1 RON2 block: .
- Giardia FBPA inh: 2%[21.7 µM]
- Sm TGR block: .

O=C(O)CC(O)(CC(=O)O)C(=O)O
- AMA1 RON2 block: 12%
- Giardia FBPA inh: -5%
- Sm TGR block: .

COCCCCC(=NOCCN)c1ccc(C(F)(F)F)cc1
- AMA1 RON2 block: .
- Giardia FBPA inh: 7%
- Sm TGR block: .

Nc1nonc1-n1nnc(C(=O)N/N=C/c2ccncc2)c1-c1cccs1
- AMA1 RON2 block: 23%
- Giardia FBPA inh: .
- Sm TGR block: -4%

NS(=O)(=O)c1cc(C(=O)O)c(NCc2ccco2)cc1Cl
- AMA1 RON2 block: -3%
- Giardia FBPA inh: 10%
- Sm TGR block: .

Part of the list above, as tab-separated lines.
compound	AMA1 RON2 block	Giardia FBPA inh	Sm TGR block
Nc1nonc1-n1nnc(C(=O)N/N=C/c2ccncc2)c1-c1cccs1	23%	.	-4%
COCCCCC(=NOCCN)c1ccc(C(F)(F)F)cc1	.	7%	.
O=C(O)Cc1ccccc1	.	2%	.
O=C(O)CC(O)(CC(=O)O)C(=O)O	12%	-5%	.
CC[C@@H]1OC(=O)[C@H](C)[C@H](O[C@@H]2C[C@](C)(OC)[C@H](O)[C@H](C)O2)[C@H](C)[C@H](O[C@@H]2O[C@@H](C)C[C@@H](N(C)C)[C@@H]2O)[C@](C)(O)C[C@H](C)C(=NOCOCCOC)[C@H](C)[C@H](O)[C@]1(C)O	.	2%[21.7 µM]	.
C#CC1(O)CCC2C3CCC4=C(CCC(=O)C4)C3CCC21C (stereo not drawn)	9%	.	.
NS(=O)(=O)c1cc(C(=O)O)c(NCc2ccco2)cc1Cl	-3%	10%	.

The list is partial, so the mix of outcomes need not match the whole.
